NS1 function inh = blocks influenza NS1 protein function. 0.4% of 270,000 active. AID 2326. Potency, µM (doses to about 46.1 µM), for inactives: at the highest dose activity, positive = more growth. S. cerevisiae slowed by influenza A NS1, growth recovery by OD600; note: actives are rising curves; nearly all actives have a fitted effect of over 50% in size
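Recovery from NS1-induced slow growth read by OD600 in budding yeast switched to galactose assay medium (pH 6.0, -URA) at 1:100 dilution. Compound 23 nl per well; the matching strain lacking NS1 serves as control.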
Cruzain noTriton = inhibitors of Trypanosoma cruzi cruzain without detergent | AID 1476 | purified cruzain, Z-FR-AMC fluorescence, no detergent | P25779 | Potency, µM, for the others: max response, negative = inhibition, actives largely listed as inhibitors | 2.3% of 200,000 active; active = well fitted curve in the direction sought with a large enough effect; inconclusive = small, poorly fitted or top-dose-only effect, or another doubt; inactive = no such curve, though single readings can be large; an effect the other way counts as inactive or inconclusive;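 note: plate controls were enzyme without inhibitor for no effect and buffer without enzyme for full effect; nearly all actives have a fitted effect of over 40% in size; top concentration of the series not given in the record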
Target sequence (P25779 123-467 limits assumed): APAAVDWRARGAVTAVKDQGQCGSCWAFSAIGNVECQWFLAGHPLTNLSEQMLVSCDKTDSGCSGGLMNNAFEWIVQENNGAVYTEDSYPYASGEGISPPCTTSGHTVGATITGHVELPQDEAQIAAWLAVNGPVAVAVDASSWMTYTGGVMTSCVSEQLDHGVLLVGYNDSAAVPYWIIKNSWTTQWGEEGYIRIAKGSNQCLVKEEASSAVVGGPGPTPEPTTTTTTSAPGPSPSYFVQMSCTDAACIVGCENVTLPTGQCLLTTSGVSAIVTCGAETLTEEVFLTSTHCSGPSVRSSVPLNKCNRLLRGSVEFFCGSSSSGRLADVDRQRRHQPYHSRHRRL
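Purified cruzain at 1.5 nM, pre-incubated 15 min with compound at room temperature in 100 mM sodium acetate pH 5.5, 5 mM DTT, 0.00005% Triton X-100. Reaction started with 2 uM Z-FR-AMC; AMC fluorescence increase over 60 s gives rate.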
Cruzain Triton = blocks cruzain activity in presence of Triton detergent; purified cruzain, Z-FR-AMC fluorescence, 0.01% Triton; AID 1478; 0.43% of 200,000 active; Potency, µM, inactives show max response, negative = inhibition, usual class: inhibitors; active = well fitted curve in the direction sought with a large enough effect; inconclusive = small, poorly fitted or top-dose-only effect, or another doubt; inactive = no such curve, though single readings can be large; an effect the other way counts as inactive or inconclusive;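 note: plate controls were neutral wells for no effect and buffer without enzyme for full effect; nearly all actives have a fitted effect of over 40% in size; top concentration of the series not given in the record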
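Compounds were screened in titration against cruzain (1.5 nM) with 0.01% Triton X-100 to counter colloidal aggregation. Activity was the AMC fluorescence increase over 60 s after adding 2 uM Z-FR-AMC at pH 5.5.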
SARS PLpro yeast = SARS-CoV PLP inhibition in yeast. S. cerevisiae expressing SARS-CoV PLpro, growth rescue; control for the full effect not named in the record. Potency, µM (doses to about 32.9 µM), inactives show at the top dose activity, positive = growth rescue. 0.19% of 330,000 active. AID 485353; note: 0% is about no effect; nearly all actives have a fitted effect of over 55% in size; growth read by luminescence after 48 h
Marburg entry inh = inhibitors of Marburg virus binding or cell entry; Marburg virus pseudotyped entry inhibition, cell reporter; control for the full effect not named in the record; about a third of the inactives were read at about 46 µM; Potency, µM (doses to about 37.8 µM), inactives show at the highest dose activity change, negative = inhibition, actives largely listed as inhibitors; 1.8% of 300,000 active; AID 540276; active = well fitted inhibition curve with a large enough effect; inconclusive = small, poorly fitted or top-dose-only effect, or effect the other way; inactive = flat fitted curve, though single readings scatter; tested in HEK293 cells; about a fifth of its hits are not listed in these tables; note: % is set by controls: 0 for no effect and ±100 for the full control effect; luciferase read-out
RE007 growth inh = less growth of the S. pombe RE007 Vpr strain; S. pombe RE007 Vpr strain, BacTiter-Glo ATP luminescence, 24 h; control for the full effect not named in the record; Potency, µM (highest dose often 92.2 µM), inactives show at the top dose activity change, negative = less growth; 0.21% of 360,000 active; active = well fitted falling curve with a large enough effect; inconclusive = small, poorly fitted or top-dose-only effect; inactive = no such curve, though single readings can be large or run the other way;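 note: % is set by controls: 0 for no effect and ±100 for the full control effect; nearly all actives have a fitted effect of over 50% in size; the assay follows cell death caused by Vpr and the record does not say whether a fall means rescue or toxicity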
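Fission yeast RE007 carrying one integrated HIV-1 vpr copy, seeded at OD 0.01 in PMG+AL medium with 23 nL pinned compound. Grown 24 h at 30 degrees; viability read by BacTiter-Glo luminescence after 5 min.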
2A StopGo = FMDV 2A StopGo reporter, luciferase signal; Potency, µM (highest dose often 57.9 µM), inactives show at the highest dose signal change, negative = less light; AID 1159524; 1.2% of 410,000 active; human cells with a luciferase reporter of 2A StopGo recoding; control for the full effect not named in the record; active = well fitted falling curve with a large enough effect; inconclusive = small, poorly fitted or top-dose-only effect; inactive = no such curve, though single readings can be large or run the other way; tested in HEK293T cells; note: % is set by controls: 0 for no effect and ±100 for the full control effect; nearly all actives have a fitted effect of over 45% in size; luciferase light after 4 h
Lassa entry inh = Lassa virus entry inhibition; Lassa virus pseudotype entry inhibition, cell reporter; control for the full effect not named in the record; 1.2% of 300,000 active; Potency, µM (highest dose often 37.9 µM), inactives show at the top dose activity change, negative = inhibition, most hits filed as inhibitors; AID 540256; active means well fitted inhibition curve with a large enough effect; inconclusive means small, poorly fitted or top-dose-only effect, or effect the other way; inactive means flat fitted curve, though single readings scatter; tested in HEK293 cells; note: % is set by controls: 0 for no effect and ±100 for the full control effect; nearly all actives have a fitted effect of over 50% in size; luciferase read-out
* = called active by the depositor; ? = inconclusive; nt = no result given; & = joins results of further samples; [ ] = another dose, or the depositor's remark. Unless noted, calls come from the whole dose curve; as a rule, active means well fitted rising curve with a large enough effect; inconclusive means small, poorly fitted or top-dose-only effect; inactive means no such curve, though single readings can be large or run the other way. Potency is the fitted concentration of half-maximal effect.

SMILES,NS1 function inh,Cruzain noTriton,Cruzain Triton,SARS PLpro yeast,Marburg entry inh,RE007 growth inh,2A StopGo,Lassa entry inh
C=CCN(C(=O)c1csnn1)C(C(=O)NC1CCCC1)c1ccccc1 (centres undefined),8%,nt,nt,1%,-2%[46.1 µM],10%,-4%,-14%[46.1 µM]
COC(=O)C1=C(C)N(C)C(C)=C(C(=O)OC)C1c1ccc(C(=O)OC)cc1,-4%,-4%,-8.8%,-1%,-19%[46.1 µM],18%,-3%,12%
COc1ccc(NC(=O)COc2coc(CN3CCc4ccccc43)cc2=O)cc1,nt,nt,nt,-8%,-8%,-17%,3%,-11%
COc1ccc(CNC(=O)CCS(=O)(=O)Cc2cccc(Cl)c2)c(OC)c1,nt,nt,nt,-4%,2%[46.1 µM],10%,-12%,-12%[46.1 µM]
O=C(NCc1ccc(C(F)(F)F)cc1)C1CC(c2cccc(F)c2)=NO1 (centres undefined),1%,nt,nt,2%,nt,-1%,-8%,nt
N#Cc1c(SCc2ccccc2)sc(C(=O)c2ccccc2)c1N,6%,1%,-5.2%,3%,10%,6%,0%,-27%
Cc1ccc(C)c(SCc2noc(C(=O)NCC3CCCO3)c2C(=O)O)c1 (centres undefined),16%,-1%,-4.6%,4%,nt,1%,-10%,nt
N#Cc1c[nH]n2c(NC3CCCCC3)c(-c3cccc(Cl)c3)nc12,nt,-10%,-0.9%,nt,-21%[46.1 µM],nt,33%[activator],0%[46.1 µM]
COc1ccc(CNC(=O)C(c2ccco2)N(Cc2ccccc2)C(=O)Cc2cccs2)cc1 (centres undefined),11%,12%,-5.4%,-5%,-2%,5%,22%,-32%
Cc1ccc(NC(=O)COC(=O)[C@H](C)NC(=O)c2ccccc2)cc1S(=O)(=O)N1CCOCC1,-8%,nt,nt,-1%,-3%,-1%,2%,nt
O=C(Cn1ncc2c3ccccc3n(Cc3ccccc3)c2c1=O)NCc1ccccc1,nt,0%,-1.0%,nt,-5%[46.1 µM],nt,-8%,17%[46.1 µM]
Cc1ccc2nc(-c3ccc(C)o3)c(Nc3ccc4c(c3)OCCO4)n2c1,nt,?,-11%,nt,-8%[46.1 µM],nt,28%,?
Cc1cc(NC(c2ccc(Cl)cc2)c2ccc3cccnc3c2O)no1 (centres undefined),-171%,?,2.2%,?,?,?,-19%,?
CCCCOC(=O)C1=C(C)Nc2ncnn2C1c1cccc(OC)c1 (centres undefined),-11%,2%,-6.2%,12%,-21%,5%,-16%,-1%
O=C(Nc1ccc(-n2cnnn2)cc1)C1CCC1,-8%,-13%,16%,1%,19%,28%,-11%,0%
O=C(O)c1ccccc1-c1ccc(C=C2C(=O)N(c3ccccc3)C(=S)N(c3ccccc3)C2=O)o1,22%,nt,nt,0%,nt,2%,16%,nt

Compound profiles, as listed above. Values in the order: NS1 function inh	Cruzain noTriton	Cruzain Triton	SARS PLpro yeast	Marburg entry inh	RE007 growth inh	2A StopGo	Lassa entry inh
O=C(O)c1ccccc1-c1ccc(C=C2C(=O)N(c3ccccc3)C(=S)N(c3ccccc3)C2=O)o1 reads 22%	nt	nt	0%	nt	2%	16%	nt
Cc1ccc(NC(=O)COC(=O)[C@H](C)NC(=O)c2ccccc2)cc1S(=O)(=O)N1CCOCC1 reads -8%	nt	nt	-1%	-3%	-1%	2%	nt
CCCCOC(=O)C1=C(C)Nc2ncnn2C1c1cccc(OC)c1 (centres undefined) reads -11%	2%	-6.2%	12%	-21%	5%	-16%	-1%

The list continues.
Letter code: A = NS1 function inh; B = Cruzain noTriton; C = Cruzain Triton; D = SARS PLpro yeast; E = Marburg entry inh; F = RE007 growth inh; G = 2A StopGo; H = Lassa entry inh
C/C=C(\C)CN1CCc2cc(OC)c(OC)cc2C1
  A: 10%	B: 5%	C: 3.8%	D: ?	E: 5%	F: 4%	G: 8%	H: -4%

CCOc1ccc2c(c1)-c1c(ssc1=S)C(C)(C)N2C
  A: -15%	B: -6%	C: -1.9%	D: -15%	E: -25%&-25%[46.1 µM]	F: -26%	G: -12%	H: 0%

N#CCCN(CCC#N)c1nnc(-c2ccccc2)s1
  A: -9%	B: 3%	C: 0.1%	D: 3%	E: 2%&2%	F: 4%	G: -16%	H: 8%

COc1ccc(NC(=O)/C(C#N)=C\c2ccc(-c3cc(C(=O)O)ccc3C)o2)cc1
  A: 0%	B: nt	C: nt	D: 2%	E: nt	F: -6%	G: -12%	H: nt

CCOc1cc(CNc2ncc(-c3ccc(OC)cc3)n2C)ccc1O
  A: 1%	B: 11%	C: 4.2%	D: 0%	E: -27%	F: -11%	G: -19%	H: 16%

COc1ccc(C(=O)OCC(=O)NCc2ccc3c(c2)OCO3)cc1[N+](=O)[O-]
  A: -3%	B: -2%	C: -4.3%	D: 8%	E: ?	F: 4%	G: -25%	H: ?

Cc1ccc(SCCC(=O)N(C)C)cc1
  A: ?	B: 4%	C: -4.2%	D: 1%	E: ?	F: 0%	G: 54%[activator]	H: ?

O=C(c1cc2cc(F)ccc2[nH]1)N1CCN(c2ccc(F)cc2)CC1
  A: -1%	B: nt	C: nt	D: -5%	E: nt	F: -9%	G: -20%	H: nt

Cc1ccnc(NC2(C(F)(F)F)N=C(c3ccccc3)NC2=O)c1 (centres undefined)
  A: 2%	B: -3%	C: -0.9%	D: -4%	E: 16%	F: 4%	G: 3%	H: -7%

CCC(C)(C)NC(=O)C(c1ccc(F)cc1)N(CCOC)C(=O)CCC(=O)Nc1nccs1 (centres undefined)
  A: 15%	B: nt	C: nt	D: 0%	E: ?	F: 3%	G: 5%	H: -2%

Cc1onc(-c2ccccc2Cl)c1C(=O)N1CCOC12CCN(c1cccc(F)n1)CC2
  A: 8%	B: nt	C: nt	D: -1%	E: 1%[46.1 µM]	F: 13%	G: 5%	H: -2%

Cc1ccc(NC(=O)C2CCN(S(=O)(=O)c3c(C)noc3/C=C/c3ccco3)CC2)cc1C
  A: nt	B: -4%	C: -21%	D: nt	E: 7%[46.1 µM]	F: nt	G: ?	H: 0%[46.1 µM]

A draw from above in order of count of non-hydrogen atoms, ascending:
Letter code: A = NS1 function inh; B = Cruzain noTriton; C = Cruzain Triton; D = SARS PLpro yeast; E = Marburg entry inh; F = RE007 growth inh; G = 2A StopGo; H = Lassa entry inh
Cc1ccc(SCCC(=O)N(C)C)cc1
  A: ?	B: 4%	C: -4.2%	D: 1%	E: ?	F: 0%	G: 54%[activator]	H: ?

N#CCCN(CCC#N)c1nnc(-c2ccccc2)s1
  A: -9%	B: 3%	C: 0.1%	D: 3%	E: 2%&2%	F: 4%	G: -16%	H: 8%

CCOc1cc(CNc2ncc(-c3ccc(OC)cc3)n2C)ccc1O
  A: 1%	B: 11%	C: 4.2%	D: 0%	E: -27%	F: -11%	G: -19%	H: 16%

COc1ccc(C(=O)OCC(=O)NCc2ccc3c(c2)OCO3)cc1[N+](=O)[O-]
  A: -3%	B: -2%	C: -4.3%	D: 8%	E: ?	F: 4%	G: -25%	H: ?

Cc1ccc(NC(=O)C2CCN(S(=O)(=O)c3c(C)noc3/C=C/c3ccco3)CC2)cc1C
  A: nt	B: -4%	C: -21%	D: nt	E: 7%[46.1 µM]	F: nt	G: ?	H: 0%[46.1 µM]
